Assay outcomes deposited in PubChem BioAssay by Broad Institute.
Calb FLC: C. albicans growth modulation with fluconazole | C. albicans CaCi-2 (fluconazole-resistant clinical isolate) + fluconazole, Alamar Blue growth, 48 h | growth inhibition, % (no concentration beside the values) | 0.57% of 300,000 active;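 active = most replicates above 75%; inconclusive = exactly half above 75%; inactive = most below 75%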;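 note: all wells also contain fluconazole at 8 µg/ml as a sub-toxic cotreatment; 0% = median of DMSO wells and 100% = median of geldanamycin control wells; wells of about 8 µL received 7.5 nL stock; the first replicate is given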
FGF22 binding: binders of recombinant human FGF22 by thermal shift; Q9HCT0; SYPRO orange fluorescence; percent of sucrose octasulfate shift, DMSO zero; calls only at 9.99 µM; 1.5% of 340,000 active; AID 651658;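 active = melting point raised past a set limit in the mean and every replicate; inconclusive = no clear call; three in four hits are not shown here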
Target sequence (Q9HCT0 whole entry, looked up): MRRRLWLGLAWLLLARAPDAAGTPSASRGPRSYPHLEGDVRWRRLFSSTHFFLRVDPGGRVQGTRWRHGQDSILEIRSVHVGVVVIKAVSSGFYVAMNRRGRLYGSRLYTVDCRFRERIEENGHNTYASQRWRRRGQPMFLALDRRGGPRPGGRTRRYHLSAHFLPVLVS
AF4-AF9 inh: blocks AF4 peptide binding to human AF9. P42568. AlphaScreen, biotin-AF4 peptide binding to FLAG-AF9. inhibition, % at 10 µM. 0.47% of 350,000 active. AID 651704;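 active = every replicate reaching a set inhibition limit, whatever the replicate mean, cut at about 25% in these data; inconclusive = mean inhibition reaches that limit but some replicates miss it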;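 note: 0% = plate neutral control median and 100% = total signal loss; the record names both 10 and 1 µM as test concentration; the first replicate is given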
Target sequence (P42568 whole entry, looked up): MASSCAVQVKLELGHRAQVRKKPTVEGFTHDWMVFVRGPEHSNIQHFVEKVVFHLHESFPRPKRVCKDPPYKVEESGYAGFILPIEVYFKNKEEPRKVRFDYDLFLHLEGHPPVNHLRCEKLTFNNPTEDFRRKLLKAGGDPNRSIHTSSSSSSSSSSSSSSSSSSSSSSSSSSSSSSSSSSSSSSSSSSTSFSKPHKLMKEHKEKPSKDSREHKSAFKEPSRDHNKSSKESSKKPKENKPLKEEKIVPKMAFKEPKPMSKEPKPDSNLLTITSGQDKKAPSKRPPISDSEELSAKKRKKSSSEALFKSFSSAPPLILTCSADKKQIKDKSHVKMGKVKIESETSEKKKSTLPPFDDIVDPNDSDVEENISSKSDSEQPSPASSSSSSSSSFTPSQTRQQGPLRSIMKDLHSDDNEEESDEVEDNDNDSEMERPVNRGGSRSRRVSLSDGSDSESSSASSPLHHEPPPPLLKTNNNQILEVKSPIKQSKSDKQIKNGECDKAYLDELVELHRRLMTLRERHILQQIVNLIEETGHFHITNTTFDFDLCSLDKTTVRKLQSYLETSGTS
Ecoli rRNA inh: inhibitors of bacterial rRNA selective over humanized ribosomes. E. coli WT GFP vs humanized-ribosome RFP mutants, fluorescence, 24 h; stronger effect = lower value; DMSO median 0, no signal -100. GFP signal change (wild-type ribosome), % (concentration not given with the values). 1.6% of 350,000 active. AID 720706;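 active = significant combined selectivity score with lowered wild-type GFP, culture density cut under 30%, mutant RFP and density less affected; inactive = any of these conditions unmet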; note: one replicate is shown; some compounds called inactive have numbers as strong as hits
RanGTP-Imp inh: disruptors of Ran-importin-beta complex formation – biochemical, FRET, CFP-Ran, YFP-importin-beta, homogeneous, primary screen; cell-free CFP-Ran/YFP-importin-beta FRET ratio; AID 2216; 1.1% of 300,000 active; inhibition, % (no concentration beside the values);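 active = most replicates above 15%; inconclusive = exactly half above 15%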;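 note: 0% = DMSO wells and 100% = Ran loaded with GDP instead of GTP; wells of about 40 µL received 100 nL stock; the first replicate is given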
Beta cell apopt: blocks beta cell apoptosis; INS-1E cytokine-induced death, ATP luminescence, 48 h; percent of positive-control rescue, neutral wells zero; 0.8% of 300,000 active; protection from apoptosis, % (no concentration beside the values);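 active = all replicates at 75% or more, or half of them and the mean; inconclusive = half reach 75% but not the mean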;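 note: 0% = cytokine-treated negative control wells and 100% = positive control rescue; higher means more ATP so stronger rescue from cytokine killing; wells of about 40 µL received 100 nL stock; the first replicate is given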
ALR H2O2 inh: human ALR oxidase inhibition via reduced H2O2; P55789; purified ALR, DTT oxidation, H2O2 HRP-luminol luminescence; inhibition, % (test concentration not listed); 3.8% of 290,000 active; AID 485317;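 active = mean and each replicate at 75% or more; inconclusive = only one of the two met; inactive = neither met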;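 note: stock transfer was 7.5 nL into about 7.5 µL; 0% = neutral wells and 100% = wells with inactivated enzyme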
Target sequence (P55789 whole entry, looked up): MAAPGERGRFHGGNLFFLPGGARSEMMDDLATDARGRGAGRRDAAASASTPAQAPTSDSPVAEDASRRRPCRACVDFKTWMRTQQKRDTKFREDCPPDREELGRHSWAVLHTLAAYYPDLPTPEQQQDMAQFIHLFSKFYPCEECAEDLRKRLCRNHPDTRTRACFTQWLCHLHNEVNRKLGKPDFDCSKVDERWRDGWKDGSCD
T cruzi inh: blocks replication of Trypanosoma cruzi; inhibition, % (no concentration beside the values); AID 1885; T. cruzi beta-gal in NIH3T3, luminescence, 90 h; 1.4% of 300,000 active;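 active = mean inhibition across valid replicates above about 55%, limit read from the data; inconclusive = mean below that limit but half or more replicates reach it; inactive = mean below it, under half of replicates reach it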;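 note: signal also drops with host cell toxicity which is not excluded here; 0% = plate median of DMSO wells and 100% = zero luminescence signal; higher percent means less beta-gal luminescence so fewer parasites; stock transfer was 50 nL into about 50 µL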
Ecoli rRNA inh OD600: further read-out of Ecoli rRNA inh, marked with its call; OD600 change, %; measured here: OD600 growth;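 optical density of the mix in the first replicate; 0 = DMSO median and -100 = no signal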
Ecoli rRNA inh RFP: second read-out of Ecoli rRNA inh, no call of its own (marks repeat the call); RFP signal change, %; measured here: RFP humanized mutant strains;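 first replicate; 0 = DMSO median and -100 = no signal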
Starred values were filed as active, the others as inactive; i = inactive; ? = inconclusive; nt = no result given. An excerpt; rates above refer to the full screens.

smiles	Calb FLC	FGF22 binding	AF4-AF9 inh	Ecoli rRNA inh	Ecoli rRNA inh OD600	Ecoli rRNA inh RFP	RanGTP-Imp inh	Beta cell apopt	ALR H2O2 inh	T cruzi inh
CN(C(=O)COC(=O)c1cc(-c2ccccc2Cl)nc2ccccc12)C1CCS(=O)(=O)C1 (stereo not given)	7.9	i	1.5	-9.3	-4.0	6.5	7.2	2.1	nt	-24.6
CN1C(=O)CS(=O)c2ccc(C(=O)NC3CC3)cc21 (stereo not given)	-4.0	i	-4.2	10.7	6.9	1.1	4.1	-5.7	7.1	8.5
Cc1ccc(S(=O)(=O)Nc2ccccc2-c2ccccc2NS(=O)(=O)c2ccc(C)cc2)cc1	-1.9	nt	nt	nt	nt	nt	-3.4	7.6	1.8	-5.0
COc1ccc(S(=O)(=O)N2CCC(C(=O)N[C@@H](C)C(=O)NC3CC3)CC2)cc1	5.5	i	1.5	12.5	19.8	2.5	0.3	-2.0	-18.9	-19.7
CN=C(Nc1cccc(OC)c1)SC1CC(=O)N(c2ccc(C(=O)O)cc2)C1=O (stereo not given)	-2.9	nt	nt	nt	nt	nt	3.5	5.6	-6.7	-0.1
O=C(c1ccccc1C(=O)N(c1ccccc1)c1ccccc1)N1CCCCC1	-10.4	nt	nt	nt	nt	nt	-0.4	8.2	nt	-0.2
CCn1cc(CN2CCN(CCc3ccccc3)C(CCO)C2)c(C)n1 (stereo not given)	-20.4	i	-0.2	13.5	14.1	-2.5	-6.0	1.3	-7.8	-1.0
O=C(NCCc1csc(-c2cccnc2)n1)c1cccc(Cl)c1	6.7	i	2.8	-13.0	-7.6	-5.3	-0.7	0.8	nt	0.7
COc1ccc(N2C(=O)C3CCCN3C2c2cccc(OC)c2OC)cc1 (stereo not given)	-1.1	nt	-3.5	10.1	7.1	-3.2	8.4	-2.7	-4.4	-3.8
O=C(CNC(=O)c1ccccc1F)Nc1ccncc1	-2.4	nt	-1.5	16.5	-0.7	-0.6	-0.2	1.0	-2.4	-4.5
CC(=O)Nc1ccc(N(C(=O)CNC(=O)c2cccs2)C(C(=O)NC(C)(C)C)c2ccccc2)cc1 (stereo not given)	0.6	i	-6.9	13.6	7.3	-3.3	0.3	-3.0	-5.1	-12.5
COc1cccc(OCc2cc(C(=O)NCCN3CCCCC3CO)no2)c1 (stereo not given)	-3.7	i	2.2	3.8	9.0	1.9	3.6	-8.6	-12.6	-5.4
Cc1ccccc1N=Nc1c(N)n[nH]c1N	-4.2	i	1.6	3.9	12.8	2.7	-3.5	-5.8	93.3*	-0.4
O=S(=O)(c1cc(Br)c(Cl)s1)N1CCCC1	-0.3	i	-3.0	-18.9	-20.6	-0.8	0.0	2.4	-5.5	6.1
COc1cc(OC)c(NC(=O)CN(C)S(=O)(=O)c2ccc3[nH]c(=O)oc3c2)cc1Cl	3.4	i	-0.1	-7.1	-4.9	0.9	4.3	3.2	-14.9	6.9
CCOC(=O)CC1CCCCN1C(=O)c1ccc2nc(CCOC)oc2c1 (stereo not given)	49.2	i	-0.5	7.8	13.5	1.5	0.1	-5.1	1.1	1.4
COc1ccc(NS(=O)(=O)c2ccc(N3CCCC3)c(NC(=S)Nc3cccc(C)c3C)c2)cc1	32.3	nt	nt	nt	nt	nt	2.2	-7.7	-1.4	-0.1
CCOC(=O)Cc1csc(NC(=O)C(CC(C)C)NC(=O)C2CCCCC2)n1 (stereo not given)	-1.8	i	12.7	2.9	-3.3	-9.6	-2.1	-2.0	-24.2	0.5
COc1ccccc1NC(=O)c1cccs1	5.6	nt	nt	nt	nt	nt	-0.4	0.5	-4.7	-34.4
COc1ccc(-n2c(N)c(C(=O)NCC3CCCO3)c3nc4ccccc4nc32)c(OC)c1 (stereo not given)	58.8	nt	nt	nt	nt	nt	52.5*	nt	1.3	10.2
Cc1ccccc1-n1ncc2c1CC(C)(C)CC2NC(=O)CCN1CCCCC1=O (stereo not given)	-12.0	nt	-2.3	9.5	20.0	3.8	-3.2	3.1	-0.4	6.4
O=C(COC(=O)C1CCN(C(=O)c2ccc(Cl)cc2)CC1)Nc1ccccc1F	nt	i	-2.2	-17.1*	-11.2*	4.6*	nt	-2.8	-0.1	nt
Cc1ccc(C(=O)Nn2c(O)c(C=C3N=c4ccccc4=N3)sc2=S)cc1	26.0	nt	nt	nt	nt	nt	-2.0	12.0	18.7	-17.0
CCc1cc(Cn2nc(-c3ccccc3C)cc2C(=O)O)on1	nt	i	nt	10.1	8.3	-2.7	nt	-0.1	-11.5	nt
O=S(=O)(c1ccc2c(c1)CCCC2)N1CCNCC1	nt	i	1.0	3.8	8.4	-2.5	nt	-4.7	nt	nt
N#Cc1c(-c2ccccc2Cl)noc1/C=C/Nc1ccc(C(=O)O)cc1	-10.9	i	-0.7	1.9	-4.1	19.7	-6.5	0.6	-13.6	24.4
COc1ccc(CNC(=O)CN2C(=O)NC(C)(c3cccc(Br)c3)C2=O)cc1 (stereo not given)	nt	i	?	-3.8	-10.5	7.1	-1.7	-1.5	-3.7	3.7
CNS(=O)(=O)c1ccc(Cl)nc1	-1.6	nt	nt	nt	nt	nt	-1.0	1.5	-4.9	-3.4
CCCCN(Cc1ccco1)C(=O)Cn1ncc2c(=O)oc3ccc(C)cc3c21	-9.6	i	-3.8	8.1	10.9	-0.1	-4.0	-0.9	-6.7	-7.6
CC(C)CNS(=O)(=O)c1ccc(S(=O)(=O)N2CCC3(CC2)OCCO3)cc1	18.0	i	-0.3	3.8	7.6	1.2	2.7	7.3	-4.9	-12.2
CC(C)(C)C(=O)NCCN1CCN(C(=O)C(C)(C)C)CC1	-10.5	nt	nt	nt	nt	nt	-1.8	1.0	-0.3	-5.4
CC(C)n1c(NCc2cc(Cl)ccc2O)nc2ccccc21	-25.4	i	7.6	-63.9	-67.8	-26.8	0.6	7.4	68.3	8.8
C/C(=N/NC(=O)CNC(=O)CCc1ccccc1)c1ccc(Cl)c(Cl)c1	-2.5	i	2.0	1.1	4.8	-0.1	2.8	-9.0	-1.9	7.8
O=c1c(C(c2ccccc2)c2c(O)nc3n(c2=O)CCS3)c(O)nc2n1CCS2	5.6	i	-3.2	nt	nt	nt	7.0	-2.3	52.4	-16.1
Cc1ccc(-n2c(SCC(=O)N3CCOCC3)nnc2-c2ccncc2)cc1	1.7	i	-22.0	6.8	8.9	-1.8	-2.1	-5.1	-3.5	2.9
Cc1cc(OCC(=O)Nc2ccc3c(c2)OCCO3)ccc1Cl	-3.4	nt	nt	nt	nt	nt	1.2	1.0	-4.8	-8.1
C/C(=N\NC(=O)c1cc(C)nc2ccccc12)c1ccc([N+](=O)[O-])cc1	-1.3	i	2.2	10.0	7.7	-1.9	0.4	5.7	-5.4	-3.8
N#C/C(=C/c1ccc2c(c1)OCO2)C(=O)NCCc1c[nH]c2ccccc12	-27.9	i	16.7	nt	nt	nt	5.5	-4.6	1.9	-5.3
O=C(O)CCCCCNc1nc(=S)[nH]c2ccccc12	6.8	nt	nt	nt	nt	nt	1.9	-1.8	82.3*	-15.3
COc1ccc(-c2nnc(-c3cc4ccccc4oc3=O)o2)cc1	8.0	nt	nt	nt	nt	nt	-1.6	-3.0	1.7	-6.4
COc1cccc(-c2coc3cc4oc(=O)c(CC(=O)O)c(C)c4cc23)c1	6.3	i	-1.1	-25.9	-55.2	-6.4	5.5	-10.4	nt	-5.2
O=C(O)c1ccccc1C(=O)c1ccc(-c2ccccc2)cc1	3.8	i	-9.8	-8.2	-2.6	-3.0	-0.5	-6.1	-0.6	-0.2
COc1ccc(-n2ncc(Cl)c(Cl)c2=O)cc1	44.6	nt	-2.7	17.6	14.3	0.3	-5.3	nt	nt	56.7*
Oc1ccc(Br)cc1/C=N/Nc1ncc(-c2ccccc2)cn1	-14.7	i	0.0	9.2	12.0	-1.5	-3.8	49.0	3.7	13.5
COc1ccc(OC)c(CNS(=O)(=O)c2cc(-c3cc(C)no3)ccc2OC)c1	11.3	i	2.4	0.5	-5.2	2.4	1.9	-5.6	-7.8	8.8
CN(C)CCCNC(=O)c1ccc(-c2nc(-c3ccc(Cl)cc3)cs2)cc1	100.4*	nt	nt	nt	nt	nt	0.4	46.7	27.1	65.1*
CC(=O)N1CCN(c2ccc(S(=O)(=O)N3CCOCC3)cc2[N+](=O)[O-])CC1	nt	i	-6.2	-1.9	-5.1	0.2	nt	-4.8	-4.8	nt
Cc1c(CN2CCC(CO)(Cc3ccccc3)CC2)c2ccccc2n1C	-33.1	i	10.2	2.7	-4.3	4.6	nt	-2.2	-9.8	57.4*
Cc1[nH]nc(Nc2ccc(O)cc2)c1[N+](=O)[O-]	40.4	i	0.0	8.3	13.9	1.6	-1.7	3.3	99.5*	-4.8
FC(F)(F)c1ccnc(N2CCN(Cc3cnc(-c4ccccc4)[nH]3)CC2)c1	-0.9	i	-6.3	7.0	-5.4	1.5	-0.3	-3.4	-6.7	9.0

Next entries follow.
smiles	Calb FLC	FGF22 binding	AF4-AF9 inh	Ecoli rRNA inh	Ecoli rRNA inh OD600	Ecoli rRNA inh RFP	RanGTP-Imp inh	Beta cell apopt	ALR H2O2 inh	T cruzi inh
N#CCOc1ccc(C2=NO[C@@H]3[C@@H]4C[C@@H]([C@H]5C(=O)N(c6ccc7c(c6)OCO7)C(=O)[C@@H]45)[C@H]23)cc1	22.1	i	0.6	2.3	-4.4	-1.2	-2.8	2.9	-45.2	11.2
COCc1cc(C)nc2sc(C(=O)NN)c(-n3cccc3)c12	5.7	i	0.2	-5.1	-2.6	1.0	4.3	-5.2	6.1	13.6
O=C(Nc1ccccc1)c1ccc[nH]1	0.2	i	3.4	8.7	10.3	-2.3	-3.2	-1.2	-18.9	-1.9
Cc1cc(C)c2nc(-c3cccnc3)cc(C(=O)NC(C)c3cnn(C)c3C)c2c1 (stereo not given)	6.4	nt	-0.5	9.2	1.5	1.2	-1.9	7.4	nt	11.4
CC(NC(=O)c1cc2ccccc2o1)c1cccs1 (stereo not given)	1.0	nt	nt	nt	nt	nt	-2.5	-2.3	-26.7	-1.4
NNC(=S)Nc1cc(S(=O)(=O)N2CCOCC2)ccc1N1CCOCC1	?	i	4.5	12.2	12.1	2.7	1.1	-10.7	11.2	6.1

Reprinted at random: 2 entries already listed.
smiles	Calb FLC	FGF22 binding	AF4-AF9 inh	Ecoli rRNA inh	Ecoli rRNA inh OD600	Ecoli rRNA inh RFP	RanGTP-Imp inh	Beta cell apopt	ALR H2O2 inh	T cruzi inh
O=C(Nc1ccccc1)c1ccc[nH]1	0.2	i	3.4	8.7	10.3	-2.3	-3.2	-1.2	-18.9	-1.9
Cc1cc(C)c2nc(-c3cccnc3)cc(C(=O)NC(C)c3cnn(C)c3C)c2c1 (stereo not given)	6.4	nt	-0.5	9.2	1.5	1.2	-1.9	7.4	nt	11.4
